Six1-Eya2 inh: inhibitors of human Six1/Eya2 interaction; Q15475+O00167; AlphaScreen GST-Six1/His-Eya2 binding, biochemical; active compounds read low; control for the full effect not named in the record; activity change, % (test concentration not listed); 0.56% of 360,000 active; AID 651725; in the data active = activity change below about -65%; inconclusive = about -30% to -65%; inactive = above about -30%; also: % is scaled to controls: 0 for no effect and ±100 for the full control effect
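AlphaScreen luminescence read after one hour at 37 °C in darkness. Pin-transferred compounds met GST-Six1 and His-Eya2 protein (5X stock 250 nM/500 nM) plus glutathione donor and Ni-chelate acceptor beads (5X, 50 ug/mL).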
D2 ag: activates the human D2 dopamine receptor. DiscoveRx PathHunter D2 beta-arrestin, luminescence, 90 min; 100% = 57 uM dopamine signal. AID 624465. 0.084% of 360,000 active. activation, % (no concentration beside the values); in the data active = activation above about 40%; inconclusive = about 15% to 40%; inactive = below about 15%; also: compound concentration not given in the record; the text of the record calls up to 30% inactive
Target sequence (P14416 whole entry, looked up): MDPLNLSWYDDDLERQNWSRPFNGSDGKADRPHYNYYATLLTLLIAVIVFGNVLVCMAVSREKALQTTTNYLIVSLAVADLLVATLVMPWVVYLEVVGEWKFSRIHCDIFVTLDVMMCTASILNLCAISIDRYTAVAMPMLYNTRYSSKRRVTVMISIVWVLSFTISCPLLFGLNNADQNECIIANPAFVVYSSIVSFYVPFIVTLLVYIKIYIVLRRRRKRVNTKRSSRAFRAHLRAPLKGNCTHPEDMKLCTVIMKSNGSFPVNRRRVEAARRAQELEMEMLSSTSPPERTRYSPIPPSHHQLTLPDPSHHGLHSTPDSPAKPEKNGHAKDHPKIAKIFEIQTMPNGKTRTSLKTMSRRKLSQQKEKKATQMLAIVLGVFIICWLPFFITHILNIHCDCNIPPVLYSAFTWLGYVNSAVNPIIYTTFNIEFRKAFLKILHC
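DiscoveRx PathHunter D2 beta-arrestin cells (2,100/well) attached overnight, then compound-stimulated 90 min at 37 C in HBSS/10 mM HEPES/0.1% Tween-20 buffer; beta-galactosidase complementation read by luminescence after 1 h at ambient temperature. Dopamine 57 uM final (EC100) as control.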
PINK1 modulator: modulators of PINK1 expression | Potency, µM (doses to about 76.6 µM), for inactives: at the highest dose activation (PINK1 increase), actives largely listed as activators | PINK1 immunofluorescence, high-content cytometry, 24 h | AID 624263 | 0.2% of 410,000 active; active = well fitted activation curve with a large enough effect; inconclusive = small, poorly fitted or top-dose-only effect; inactive = flat fitted curve, though single readings scatter; cell line not stated here;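 also: potency is read from the fitted curve at half-maximal effect; % of control where 0% means no effect; nearly all actives have a fitted effect of over 65% in size; a mitochondrial uncoupler was the plate control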
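Compound titrations (5 concentrations, 24 h) on a stable cell line; DMSO and CCCP controls. Endpoint: fixed-cell PINK1 immunofluorescence with mitochondrial, cell and nuclear markers, scanned by microplate cytometer.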
D2 PAM: human D2 receptor positive allosteric modulation; P14416; DiscoveRx D2 beta-arrestin cells, luminescence, 90 min; 100% = 57 uM dopamine signal; potentiation, % (no concentration beside the values); 0.23% of 360,000 active; AID 624464; active = potentiation of 50% or more; inconclusive = 30% to 50%; inactive = 30% or less;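 also: compound concentration not given in the record; tested on top of an EC20 dose of dopamine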
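PathHunter D2 cells, attached overnight at 37 deg C, received compound in DMSO plus dopamine at EC20 (50 nM final) for 90 min at 37 deg C. Beta-arrestin recruitment was read as luminescence after 1 h with detection reagent at ambient temperature.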
CtBP-E1A inh: inhibitors of CtBP/E1A interaction; AlphaScreen GST-E1A/His-CtBP binding, 1536-well; active compounds read low; control for the full effect not named in the record; AID 651724; activity change, % (test concentration not listed); 0.49% of 340,000 active; in the data active means activity change below about -65%; inconclusive means about -30% to -65%; inactive means above about -30%; also: % is scaled to controls: 0 for no effect and ±100 for the full control effect
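Steps: dispense buffer (Tris pH 8.0, NaCl 300 mM, TCEP 1 mM, BSA, Tween 20); add 5X protein mix (GST-E1A, His-CtBP, 125 nM each); pin 23 nL compound; 2 h at 37 °C, dark; add 5X beads (50 ug/mL); 1 h; read.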
TRPML1 ag: activates the human TRPML1 channel; Q9GZU1; TRPML1-expressing cells, Ca2+ dye fluorescence, FDSS; host cell line not named in the record; reference of the full effect not given here; activation, % (no concentration beside the values); 0.12% of 410,000 active; AID 624414; in the data active = activation above about 50%; inconclusive = about 30% to 50%; inactive = below about 30%; also: 0% is about no effect; the text of the record puts the active cut at 80%
Target sequence (Q9GZU1 whole entry, looked up): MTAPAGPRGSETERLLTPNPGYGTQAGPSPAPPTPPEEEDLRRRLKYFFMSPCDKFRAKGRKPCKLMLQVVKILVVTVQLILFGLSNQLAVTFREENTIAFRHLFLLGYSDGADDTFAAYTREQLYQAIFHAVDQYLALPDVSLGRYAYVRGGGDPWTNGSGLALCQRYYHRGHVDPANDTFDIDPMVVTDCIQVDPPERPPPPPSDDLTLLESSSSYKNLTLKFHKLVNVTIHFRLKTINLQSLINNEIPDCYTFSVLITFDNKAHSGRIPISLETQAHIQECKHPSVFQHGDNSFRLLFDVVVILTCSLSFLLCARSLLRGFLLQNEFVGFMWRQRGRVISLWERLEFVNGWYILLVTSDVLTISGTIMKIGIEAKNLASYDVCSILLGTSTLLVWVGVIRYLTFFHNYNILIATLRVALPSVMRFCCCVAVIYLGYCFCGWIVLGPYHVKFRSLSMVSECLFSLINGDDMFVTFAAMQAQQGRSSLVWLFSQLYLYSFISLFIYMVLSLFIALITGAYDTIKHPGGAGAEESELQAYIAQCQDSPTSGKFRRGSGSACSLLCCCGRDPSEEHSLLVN
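Cells: TRPML1-DL, 1X Tet inducer, ~16 h at 37 degrees C/5% CO2. Dye: ABD Ca8 no-wash + quencher, 45-90 min RT. Read: 10 s baseline, compound add, 110 s agonist phase; 54-4 EC80 (4uM final), 110 s antagonist phase.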
An asterisk follows results filed as active; [ ] = remark or other dose.

What do the screens show for `COc1ccc(CCNC(=O)CNC(=O)Cn2ccc3ccccc3c2=O)cc1OC`?
Six1-Eya2 inh: -3.7; D2 ag: -0.8; PINK1 modulator: 1.7%; D2 PAM: -0.8; CtBP-E1A inh: 3.9; TRPML1 ag: -0.4

What do the screens show for `CC(C)(C)OC(=O)N1CCC[C@H]1C(=O)N/N=C/c1ccc2ncccc2c1`?
Six1-Eya2 inh: inconclusive; D2 ag: -5.1; PINK1 modulator: -1.0%; D2 PAM: -8.3; CtBP-E1A inh: -26.0; TRPML1 ag: -0.6

Results for Cc1ccc(C)c(N2CCN(C(=O)CCCn3c(=O)c4cccn4c4cccnc43)CC2)c1 ?
Six1-Eya2 inh: -17.0; D2 ag: -2.4; PINK1 modulator: -1.5%; D2 PAM: 5.4; CtBP-E1A inh: -24.0; TRPML1 ag: 3.1

Results for CCCC(=O)Nc1nnc(Cc2ccccc2)s1 ?
Six1-Eya2 inh: 7.5; D2 ag: -1.7; PINK1 modulator: 2.6%; D2 PAM: -11.9; CtBP-E1A inh: -0.9; TRPML1 ag: -0.9

What do the screens show for `Cc1ccccc1C(=O)Oc1ccccc1N1C(=O)C2CC=CCC2C1=O` (configuration not stated)?
Six1-Eya2 inh: -2.0; D2 ag: -3.0; PINK1 modulator: 3.4%; D2 PAM: 11.6; CtBP-E1A inh: -0.7; TRPML1 ag: -0.5

Results for Cc1cccn2cc(CNC(=O)c3ccco3)nc12 ?
Six1-Eya2 inh: 0.3; D2 ag: -0.5; PINK1 modulator: 0.5%; D2 PAM: 3.2; CtBP-E1A inh: 2.7; TRPML1 ag: -0.9

Results for Cc1ccc(C)c(S(=O)(=O)Nc2ccc3cn[nH]c3c2)c1 ?
Six1-Eya2 inh: 6.9; D2 ag: 0.0; PINK1 modulator: 1.1%; D2 PAM: 2.7; TRPML1 ag: 0.1

What do the screens show for `O=C(COc1ccc2ccccc2c1Br)Nc1ccncc1`?
Six1-Eya2 inh: -2.3; D2 ag: 4.2; PINK1 modulator: 4.9%; D2 PAM: 5.8; CtBP-E1A inh: 5.9; TRPML1 ag: 0.5

Results for CSc1nc(N2CCOCC2)c2ccccc2n1 ?
Six1-Eya2 inh: -1.3; D2 ag: -2.0; PINK1 modulator: 1.1%[38.3 µM]; D2 PAM: -17.6; CtBP-E1A inh: -0.2; TRPML1 ag: -0.3

What do the screens show for `Nc1c(C(=O)c2cccs2)sc2nsc(SCCN3CCCCC3)c12`?
Six1-Eya2 inh: 19.7; D2 ag: -0.9; PINK1 modulator: 16.9%; D2 PAM: -17.4; CtBP-E1A inh: 9.9; TRPML1 ag: 56.3*

Results for COc1ccccc1CCNC(=O)C(=O)NCC1OCCCN1S(=O)(=O)c1cc(C)ccc1C (configuration not stated) ?
Six1-Eya2 inh: -5.3; D2 ag: -2.3; PINK1 modulator: 0.2%; D2 PAM: -10.9; CtBP-E1A inh: 0.7; TRPML1 ag: 0.6

What do the screens show for `Cc1ccc(NC(=O)c2ccncc2)cc1[N+](=O)[O-]`?
Six1-Eya2 inh: 0.2; D2 ag: -0.1; PINK1 modulator: -0.7%; D2 PAM: 9.4; CtBP-E1A inh: 0.7; TRPML1 ag: -0.3

What do the screens show for `COCCCNC(=O)CSC1=Nc2ccccc2C2=NC(CC(=O)NCc3ccccc3)C(=O)N12` (configuration not stated)?
Six1-Eya2 inh: 3.9; D2 ag: -6.5; PINK1 modulator: 0.7%; D2 PAM: -3.3; CtBP-E1A inh: 7.3; TRPML1 ag: 0.2

What do the screens show for `CN(c1ccc(C(=O)Nc2cccc(O)c2)cc1)S(=O)(=O)c1ccccc1`?
Six1-Eya2 inh: inconclusive; D2 ag: 1.4; PINK1 modulator: -0.1%; D2 PAM: 14.4; CtBP-E1A inh: inconclusive; TRPML1 ag: 0.0

How did COc1ccc(C(=O)Nc2nnc(SCC(=O)Nc3ccc(NC(C)=O)cc3)s2)c(OC)c1 do in these assays?
Six1-Eya2 inh: -3.2; D2 ag: -1.0; PINK1 modulator: 0.4%; D2 PAM: -1.4; CtBP-E1A inh: -2.8; TRPML1 ag: -0.5

What do the screens show for `O=C(c1ccc2c(c1)CCC2)N1CCN(Cc2c(F)cccc2Cl)CC1`?
Six1-Eya2 inh: 0.4; D2 ag: -1.0; PINK1 modulator: 1.4%; D2 PAM: -9.8; CtBP-E1A inh: 9.3; TRPML1 ag: -0.1

Results for O=C(NCc1ccco1)c1ccc(N2CCCCC2)c([N+](=O)[O-])c1 ?
Six1-Eya2 inh: -7.5; D2 ag: -5.6; PINK1 modulator: -1.6%; D2 PAM: -7.5; CtBP-E1A inh: -19.7; TRPML1 ag: 0.1

How did Cc1ccccc1C(=O)NCCNc1ccc([N+](=O)[O-])cc1 do in these assays?
Six1-Eya2 inh: -1.6; D2 ag: -4.5; PINK1 modulator: 2.2%; D2 PAM: -5.8; TRPML1 ag: 0.6

Results for O=C(c1cccc(NC2=NC3CS(=O)(=O)CC3S2)c1)N1CCN(c2ncccn2)CC1 (configuration not stated) ?
Six1-Eya2 inh: 0.3; D2 ag: -1.1; PINK1 modulator: 1.2%; D2 PAM: -1.7; CtBP-E1A inh: 0.0; TRPML1 ag: 0.0

Results for c1ccc(CN2CCCC3(CCCN(Cc4nc(COc5ccccc5)no4)C3)C2)cc1 (configuration not stated) ?
Six1-Eya2 inh: -3.2; D2 ag: -2.3; PINK1 modulator: 5.0%; D2 PAM: -2.0; CtBP-E1A inh: -1.1; TRPML1 ag: 1.4

Results for Cc1ccc(C)c(C(=O)CSc2n[nH]c(C(C)C)n2)c1 ?
Six1-Eya2 inh: 19.6; D2 ag: -3.0; PINK1 modulator: 1.9%; D2 PAM: -22.4; CtBP-E1A inh: 31.7; TRPML1 ag: 1.4

What do the screens show for `O=C1c2cccc3c([N+](=O)[O-])ccc(c23)C(=O)N1c1nccs1`?
Six1-Eya2 inh: -19.3; D2 ag: 0.0; PINK1 modulator: 10.9%[38.3 µM]; D2 PAM: 26.3; CtBP-E1A inh: -6.9; TRPML1 ag: 0.1

What do the screens show for `CC(C)(C)NC(=O)COc1ccc(CNc2ccc3[nH]c(=O)[nH]c3c2)cc1`?
Six1-Eya2 inh: -17.1; D2 ag: 5.0; PINK1 modulator: -0.3%; D2 PAM: 24.4; CtBP-E1A inh: -14.3; TRPML1 ag: -0.4

What do the screens show for `Cc1nc2cc(NC(=O)CS(=O)(=O)c3ccccc3)ccc2s1`?
Six1-Eya2 inh: 1.6; D2 ag: -2.2; PINK1 modulator: 0.5%; D2 PAM: -17.8; CtBP-E1A inh: -0.9; TRPML1 ag: 0.4

Results for O=C(NN=Cc1ccccc1OC(F)F)c1cccc(S(=O)(=O)N2CCCC2)c1 ?
Six1-Eya2 inh: -25.8; D2 ag: 5.1; PINK1 modulator: 0.3%; D2 PAM: -0.3; CtBP-E1A inh: 3.3; TRPML1 ag: -0.3

Results for COc1ccc(N(CC(=O)N2CCCCCC2)S(=O)(=O)c2c(C)[nH]c(=O)[nH]c2=O)cc1 ?
Six1-Eya2 inh: -1.5; D2 ag: -4.9; PINK1 modulator: 3.1%; D2 PAM: -1.6; CtBP-E1A inh: 1.5; TRPML1 ag: -0.5

What do the screens show for `COc1cc2nc(C3CCC3)n(NC(=O)C(OC(C)=O)c3ccccc3)c(=O)c2cc1OC` (configuration not stated)?
Six1-Eya2 inh: -1.4; D2 ag: -5.3; PINK1 modulator: 3.3%[38.3 µM]; D2 PAM: -12.0; CtBP-E1A inh: 5.1; TRPML1 ag: 0.4

What do the screens show for `CCCCc1c(C)c(C#N)c2nc3ccccc3n2c1NCCN(C)C`?
Six1-Eya2 inh: 7.5; D2 ag: -1.6; PINK1 modulator: -3.1%; D2 PAM: -8.0; CtBP-E1A inh: 10.9; TRPML1 ag: 2.3

Results for O=C(NCc1cccnc1)C(=O)Nc1nc2ccccc2s1 ?
Six1-Eya2 inh: 11.1; D2 ag: -3.1; PINK1 modulator: -0.2%; D2 PAM: -6.3; CtBP-E1A inh: -9.5; TRPML1 ag: 0.6

What do the screens show for `CC(NC(=O)CCC(=O)c1cccs1)c1ccccc1` (configuration not stated)?
Six1-Eya2 inh: 0.0; D2 ag: -6.6; PINK1 modulator: 1.5%; D2 PAM: -24.4; CtBP-E1A inh: 4.2; TRPML1 ag: -0.4

How did CC(Nc1ccc(Cl)c(Cl)c1)C(=O)NN (configuration not stated) do in these assays?
Six1-Eya2 inh: 1.2; D2 ag: -4.9; PINK1 modulator: 2.0%; D2 PAM: -5.4; CtBP-E1A inh: -12.0; TRPML1 ag: -0.7

Results for COc1cc(-c2nnc3sc(-c4ccncc4)nn23)cc(OC)c1OC ?
Six1-Eya2 inh: -23.5; D2 ag: -1.6; PINK1 modulator: -0.9%; D2 PAM: -2.4; CtBP-E1A inh: inconclusive; TRPML1 ag: 0.3

Results for COc1cccc(/C=N/n2c(=S)n(C)c3cc(C)c(C)cc32)c1OC ?
Six1-Eya2 inh: -0.2; D2 ag: -2.3; PINK1 modulator: 8.3%; D2 PAM: -4.9; CtBP-E1A inh: 4.9; TRPML1 ag: -0.7

How did C#CCSC1=C(C#N)C(c2cccs2)C(C(=O)OCC)=C(C)N1 (configuration not stated) do in these assays?
Six1-Eya2 inh: -1.3; D2 ag: -0.4; PINK1 modulator: 10.4%[38.3 µM]; D2 PAM: 2.3; CtBP-E1A inh: 3.5; TRPML1 ag: -0.3

What do the screens show for `COc1cc(NC(=O)C2CCCN(c3ncccn3)C2)cc(OC)c1` (configuration not stated)?
Six1-Eya2 inh: 3.4; D2 ag: -0.8; PINK1 modulator: -0.5%; D2 PAM: 3.0; CtBP-E1A inh: 14.7; TRPML1 ag: -0.5

Results for COc1ccccc1NC(=S)N(C(C)C)C(C)c1ccccn1 (configuration not stated) ?
Six1-Eya2 inh: 6.5; D2 ag: -3.0; PINK1 modulator: 3.0%; D2 PAM: -7.5; CtBP-E1A inh: 12.4; TRPML1 ag: -0.5

How did CCc1ccc(C(=O)c2cncc(Br)c2)cc1 do in these assays?
Six1-Eya2 inh: 15.3; D2 ag: -1.5; PINK1 modulator: 2.4%; D2 PAM: -6.8; CtBP-E1A inh: 22.5; TRPML1 ag: 0.2

3 neighbouring entries already listed, for reference:
Results for O=C(NN=Cc1ccccc1OC(F)F)c1cccc(S(=O)(=O)N2CCCC2)c1 ?
Six1-Eya2 inh: -25.8; D2 ag: 5.1; PINK1 modulator: 0.3%; D2 PAM: -0.3; CtBP-E1A inh: 3.3; TRPML1 ag: -0.3

Results for COc1ccc(N(CC(=O)N2CCCCCC2)S(=O)(=O)c2c(C)[nH]c(=O)[nH]c2=O)cc1 ?
Six1-Eya2 inh: -1.5; D2 ag: -4.9; PINK1 modulator: 3.1%; D2 PAM: -1.6; CtBP-E1A inh: 1.5; TRPML1 ag: -0.5

What do the screens show for `COc1cc2nc(C3CCC3)n(NC(=O)C(OC(C)=O)c3ccccc3)c(=O)c2cc1OC` (configuration not stated)?
Six1-Eya2 inh: -1.4; D2 ag: -5.3; PINK1 modulator: 3.3%[38.3 µM]; D2 PAM: -12.0; CtBP-E1A inh: 5.1; TRPML1 ag: 0.4

Screening results deposited in PubChem by National Center for Advancing Translational Sciences (NCATS).
